# Compound activity (PubChem BioAssay)
# miR-21 FLuc – miR-21 reporter, rising signal; HeLa miR-21 FLuc reporter, luciferase, 48 h; Potency, µM (series often up to 38.3 µM), for the others: at the top dose reporter change, positive = more light; 340,000 tested, under 10 active; active = well fitted rising curve with a large enough effect; inconclusive = small, poorly fitted or top-dose-only effect; inactive = no such curve, though single readings can be large or run the other way;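 further: % of control where 0% means no effect; miR-21 action dims this reporter so a rising signal means less miR-21 action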
#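 HeLa cells stably expressing CMV-driven firefly luciferase with a downstream miR-21 binding sequence, endogenously expressing miR-21, were treated with titrations (up to about 40uM final) for 48 hours at 37 degree Celsius. Luciferase luminescence was read after lysis.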
# Rango release inh – inhibitors of RanGTP-induced Rango-importin beta complex dissociation. actives 0.071% (n = 340,000). Potency, µM (top dose mostly 46.1 µM), for the others: at the highest dose activity change, negative = inhibition. Biochemical FRET Rango-importin beta, RanGTP-induced dissociation. O95149+P62826; active means falling FRET ratio curve, often poorly fitted, with flat reads before Ran was added; inconclusive means other falling curves, or compound fluorescence or quenching; inactive means flat or rising ratio curve;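 further: potency means the concentration at half of the fitted maximal effect; % of control where 0% means no effect; nearly all actives have a fitted effect of over 45% in size; -100% = wells without RanGTP and RCC1; the record marks most hits as doubtful in a second field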
#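 FRET read at 45 min, room temperature: inhibitors block the CFP/YFP signal rise when RanGTP (0.6 uM Ran, 2 mM GTP, 0.2 uM RCC1) frees Rango (0.1 uM) from importin beta (0.25 uM). Pre-read after 5 min compound exposure flags interference.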
# Rango complex inh – prevents formation of the Rango-importin beta complex; Rango CFP/YFP FRET sensor + importin beta, 45 min; Potency, µM (doses to about 92.2 µM), inactives show at the highest dose inhibition of complex formation; actives 0.031% (n = 340,000); Q14974; active = rising FRET ratio curve, often small or poorly fitted; inconclusive = mostly compound fluorescence or quenching in the first reads; inactive = flat curves in all reads;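 further: potency means the concentration at half of the fitted maximal effect; 0% = DMSO wells and 100% = buffer wells lacking importin beta; nearly all actives have a fitted effect of over 15% in size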
#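 Inhibition scored from the CFP 486 nm/YFP 530 nm FRET ratio 45 min after adding 0.125 microM importin beta to 50 nM Rango biosensor preincubated 5 min with compound (room temperature, PBS with DTT, Tween-20, BSA). No-importin wells as positive control.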
# GLA inh pH 4.5 – alpha-galactosidase A (human) inhibition, pH 4.5. AID 1467. 230,000 tested, under 10 active. purified enzyme, 4-MU-alpha-Gal fluorescence, pH 4.5. activity change, negative = inhibition, % at 105 µM; inconclusive = small, poorly fitted or top-dose-only inhibition, or a rising curve; inactive = flat fitted curve, though single readings scatter; no compound was filed as active;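 further: 0% = full activity with enzyme and -100% = basal without enzyme; dose as in the result columns while the protocol names 77 µM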
# Target sequence (P06280 whole entry, looked up): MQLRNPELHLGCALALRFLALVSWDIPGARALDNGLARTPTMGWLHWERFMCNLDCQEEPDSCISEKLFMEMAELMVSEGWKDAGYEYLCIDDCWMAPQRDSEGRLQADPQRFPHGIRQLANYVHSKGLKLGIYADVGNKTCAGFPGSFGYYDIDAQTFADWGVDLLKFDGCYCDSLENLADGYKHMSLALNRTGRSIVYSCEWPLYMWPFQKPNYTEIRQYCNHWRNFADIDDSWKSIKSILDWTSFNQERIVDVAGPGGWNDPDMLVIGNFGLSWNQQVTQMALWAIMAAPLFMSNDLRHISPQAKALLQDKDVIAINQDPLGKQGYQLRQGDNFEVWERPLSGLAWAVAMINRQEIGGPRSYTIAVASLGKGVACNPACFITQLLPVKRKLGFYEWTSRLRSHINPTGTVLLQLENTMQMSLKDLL
# The depositor's hits bear a star; ? = inconclusive; / = no result given; & = joins results of further samples.
molecule | miR-21 FLuc | Rango release inh | Rango complex inh | GLA inh pH 4.5
S=C(NCCc1ccccc1)NCC(c1ccco1)N1CCCCC1 (stereo not given) | -13.0% | -6.2% | -2.4% | -1.1
CCC(CC)C(=O)NCCCN1CCOCC1 | 0.3% | 1.4% | -1.8% | 6.8
CCOC(=O)CC(=O)CSc1ncnc2c1nnn2-c1ccccc1 | -6.6% | -1.9% | ? | /
O=C(CCCc1nc2ccccc2s1)NCc1ccc(F)cc1 | -0.6% | 11.5% | 3.8% | 3.7
CCC(=O)Nc1nnc(S(=O)(=O)N(C)c2cc(C)cc(C)c2)s1 | -1.5% | -4.5% | -1.5% | /
O=S(=O)(NCc1cccnc1)c1ccc(Br)s1 | 6.7% | 2.9% | -3.6% | -2.3
COc1ccc(CN2C(=O)c3ccccc3C2=O)cc1C(=O)N(C)CC(=O)Nc1ccc(F)cc1 | / | 7.7% | -0.6% | /
CCOc1ccc(N(CC(=O)NC2CCCCC2)C(=O)CCC(=O)Nc2cc(C)ccn2)cc1 | -4.2% | 1.5% | 0.2% | /
O=C1C=C(c2cccc(CO)c2)C[C@@H](c2ccc3c(c2)OCO3)C1 | / | -13.4% | 0.6% | /
Cc1ccc(OCC(O)Cn2c(NCCc3ccccc3)nc3c2c(=O)[nH]c(=O)n3C)cc1 (stereo not given) | -1.1% | 6.5% | 5.8% | 2.0
O=C(CN1CCOCC1)Nc1ccccc1C(=O)O | -2.3% | 9.8% | -3.2% | -6.7
COc1ccc(OC)c2sc(Cl)nc12 | -2.0% | -9.8% | -0.2% | -1.2
O=C(c1ccncc1)c1ccc([N+](=O)[O-])cc1 | 0.7% | -2.5% | 7.4% | 3.8
O=C(NCc1cccnc1)C1CCCN(S(=O)(=O)c2ccc(Br)cc2)C1 (stereo not given) | -0.8% | -18.6% | -2.4% | 6.0
Cc1ccc(-c2cnn(-c3ccccc3)c2N)cc1 | -28.2% | -5.5% | -4.4% | /
Cc1cccc(NCCC(=O)c2ccc([N+](=O)[O-])cc2)c1C | -0.2% | -1.8% | -2.2% | 1.9
COc1cc(C(=S)N2CCOCC2)cc(OC)c1OS(=O)(=O)c1ccc(Cl)cc1 | -4.2% | -5.9% | 2.0% | /
CCC(C)c1ccc(NC(=O)Nc2cnccn2)cc1 (stereo not given) | -23.5% | -6.8% | -0.7% | /
CCOC(=O)c1sc(NC(=O)CSc2ncccn2)nc1C | -13.7% | 22.6% | 2.3% | /
Cc1ccc(-n2nnnc2SCC(=O)NCC2(N3CCOCC3)CCCCC2)c(C)c1 | / | -0.3% | 1.2% | /
S=C(Nc1ccc(N2CCOCC2)cc1)Nc1ccc2snnc2c1 | -25.1% | 9.5% | -3.1% | 1.4
CN(C(=O)COC(=O)Cc1ccccc1[N+](=O)[O-])C1CCS(=O)(=O)C1 (stereo not given) | / | -2.8% | 1.5% | /
CCC(C)(C)n1nnnc1C(c1cc(OC)c(OC)c(OC)c1)N1CCN(c2ccccc2)CC1 (stereo not given) | -4.6% | 10.9% | 1.1% | 3.0
COc1ccc(NC(=O)Cc2coc3cc(C)ccc23)cn1 | -9.7% | -0.9% | -0.1% | -0.7
COc1cc2c(cc1OC)C(C(=O)Nc1cccc(C)n1)C(c1cccnc1)N(C)C2=O (stereo not given) | -2.0% | 3.1% | -0.5% | 3.7

# (cont.)
molecule | miR-21 FLuc | Rango release inh | Rango complex inh | GLA inh pH 4.5
CCOc1ccc(C(=O)NC(Cc2ccccc2)C(=O)OC)cc1 (stereo not given) | -38.9% | 2.1% | 0.3% | -2.2
Cc1cc(C)nc(NC2=NCC(=O)N2c2ccccc2)n1 | -7.9% | -2.5% | 1.1% | 7.3
COc1ccc(CNC(=O)COC(=O)c2ccc3ncsc3c2)cc1OC | / | 0.5% | 0.8% | /
COc1cc(OC)cc(C2C(C#N)=C(N)Oc3n[nH]c(-c4cccnc4)c32)c1 (stereo not given) | -0.3% | -0.7% | ? | 1.1
COc1ccc(NC(=O)C2CCC2)cc1S(=O)(=O)Nc1cc(C)ccc1Br | / | 0.2% | -1.3% | /
O=C(OCc1nnc(-c2ccccc2)o1)C1CC(=O)N(CCc2ccccc2)C1 (stereo not given) | / | -5.3% | 0.3% | /
NS(=O)(=O)c1ccc(NC(=O)COC(=O)c2cnccn2)cc1 | 0.5% | 13.3% | 1.5% | -15.5
COc1ccc(Oc2cnc3ccccc3n2)cc1 | -18.8% | -11.2% | -1.8% | 2.3
Cc1cccc(NC(=O)c2cccnc2Cl)n1 | -9.2% | 1.1% | -1.8% | /
COC(=O)COn1c(-n2nc(C)cc2C)nc2ccccc2c1=O | -7.0% | 0.4% | -3.2% | 2.7
COc1ccc(-c2c3c([nH]c(=S)c2C#N)CCC3)cc1 | -6.2% | -29.5% | ? | 6.6
O=C(Cc1cccs1)Nc1cc(S(=O)(=O)N2CCCCC2)ccc1Cl | / | 6.7% | -0.6% | /
O=C(CC1NC2CCCCC2NC1=O)Nc1ccc2c(c1)OCO2 (stereo not given) | -5.8% | 39.1% | 6.2% | -2.4
CCOC(=O)C1(CCSC)NC(c2ccco2)C2C(=O)N(CC)C(=O)C21 (stereo not given) | -7.8% | 2.6% | -3.8% | 0.2
CCC(=O)NC(=S)Nc1ccccc1C(=O)OC | -11.6% | 4.6% | -4.3% | 1.7
O=C1[C@H]2[C@H](ON3CCCC[C@H]23)C(=O)N1c1ccc(Cl)cc1 | -7.5% | -2.9% | 2.3% | 10.8
COc1ccc(CN2CCN(Cc3ccc(C)cc3)C(CCO)C2)cc1OC (stereo not given) | -1.4% | 2.6% | 1.2% | 7.3
c1coc(CNC2CCCCCCC2)c1 | -2.0% | 1.7% | -2.8% | 0.2
COc1ccc(CN(C)S(=O)(=O)c2nnc(NC(=O)c3cccc(F)c3)s2)cc1OC | -7.8% | -1.3% | 4.9% | /
COc1ccc(N(CC(=O)NCCc2ccccc2)C(=O)CCC(=O)Nc2nccs2)c(OC)c1 | -6.1% | 24.8% | -0.2% | /
O=C(C1CCN(S(=O)(=O)c2ccccc2)CC1)N1CCN(c2ccccc2F)CC1 | / | 9.2% | -0.1% | /
CCN(CC)C(=O)CSc1nnc(CNc2ccc(F)cc2)n1-c1ccccc1 | -6.6% | 30.9% | -1.2% | -10.5
O=C(CCN1C(=O)C2C3C=CC(C3)C2C1=O)Nc1c(F)cccc1F (stereo not given) | -2.1% | -9.4% | 0.2% | 2.7
O=C(CN1CCCC1)N1CCN(c2ccccc2)CC1 | -1.5% | 24.7% | -0.5% | 4.8
CCCNc1nc(C)cc(-c2cc(C(=O)Nc3ccccc3)on2)n1 | / | 6.4% | 3.3% | /

# Next entries
molecule | miR-21 FLuc | Rango release inh | Rango complex inh | GLA inh pH 4.5
Cc1ccc(S(=O)(=O)CCC(=O)Nc2nc(-c3ccccn3)cs2)cc1 | / | -8.2% | -0.3% | /
CCSc1nnc(NC(=O)C2CCCCC2C(=O)O)s1 (stereo not given) | -16.6% | -11.5% | -1.6% | 3.9
CCC(C)[C@H](NC(=O)NCc1ccc(S(N)(=O)=O)cc1)C(=O)O (stereo not given in full) | -2.2% | -5.6% | 6.9% | -4.3
Cc1ccc(N/C(N)=N/c2nc(CSc3ccc(C)cc3)cc(=O)[nH]2)cc1 | -4.5% | 0.5% | 0.4% | 2.9
CC1CCC(C(C)C)C(OC(=O)Cn2nnc3c(cnn3-c3ccccc3)c2=O)C1 (stereo not given) | -1.1% | -8.7% | 4.1% | 0.3
COc1cc(OC)cc(C(=O)N[C@H](C(=O)Nc2nc(-c3cc(OC)ccc3OC)cs2)C(C)C)c1 | 5.9% | 7.0% | 2.2% | -2.1
CN(C)S(=O)(=O)c1ccc(N2CCCC2)c(C(=O)Nc2nc(-c3ccc(F)c(F)c3)cs2)c1 | -6.8% | 14.2% | -0.2% | -15.9
O=C(Nc1nc2ccc(F)cc2s1)c1ccccn1 | 40.2% | 0.4% | 0.0% | -0.7
CCOC(=O)CN1C(=O)C(=O)N(Cc2c(Cl)cccc2Cl)C1=O | -10.0% | 20.9% | -0.6% | /
Cc1c(O)c2ccccc2oc1=O | -0.2% | 20.4% | -1.5% | -3.7
CS(=O)(=O)c1ccc2nc(NC(=O)C3CCCCC3)sc2c1 | 1.0% | 6.7% | 1.1% | 6.3
Cc1oc(C)c(C(=O)O)c1COc1ccc(C(=O)O)cc1 | -0.4% | 16.0% | -2.3% | 5.2
Brc1cccc(CNCCCN2CCOCC2)c1 | 2.3% | -12.0% | -3.8% | -4.3
O=C(CCCOC(=O)c1cccnc1Cl)c1ccc(Br)cc1 | / | 20.5% | 0.2% | /
COc1ccc(CCNC(=O)c2cc(=O)c3cc(C)ccc3o2)cc1 | -2.9% | -15.9% | -6.1% | /
C#CCOCCOCCOCCNc1nc(N2CCN(C(=O)[C@H](Cc3ccc(O)cc3)n3cc(CCO)nn3)CC2)nc(N2CCN(C(=O)[C@H](Cc3ccc(O)cc3)n3cc(CCO)nn3)CC2)n1 | -2.7% | / | / | -2.3
COc1cccc(/C=N/NC(=O)CCc2n[nH]c(=O)[nH]c2=O)c1O | -5.3% | -20.8% | 1.2% | -15.4
CC(=O)NC(CC(=O)OC(C)C(=O)Nc1ncc(Cl)cc1Cl)c1ccccc1 (stereo not given) | 0.1% | -0.1% | 0.3% | /
Cc1nc([N+](=O)[O-])cn1CCCCN1C(=O)c2ccccc2C1=O | 2.9% | -9.4% | 4.5% | /
O=C(CSc1nnc(CNc2ccc(F)cc2)o1)c1ccccc1 | 1.9% | -4.1% | -1.2% | 3.1
CCCc1nc(SCC(=O)NC2CC2)c2c(C)c(C)sc2n1 | -3.9% | 8.3% | 1.2% | /
CC(C)(C)N(Cc1ccccc1)C(=O)COC(=O)CSc1ccc([N+](=O)[O-])cc1 | / | -10.0% | -1.0% | /
COc1ccccc1CNC(=O)CSc1ccc(C(=O)Nc2ccccc2OC)cc1[N+](=O)[O-] | -9.1% | 2.1% | 0.5% | -2.0
O=S(=O)(Nc1ccc(S(=O)(=O)Nc2cccc3ccccc23)cc1)c1ccccc1 | -1.0% | 14.2% | -1.0% | 3.5
CSc1ccc(C(=O)C2CCCN(Cc3ccc(N4CCNC4=O)cc3)C2)cc1 (stereo not given) | -2.4% | 18.9% | 0.0% | -13.6

# Continued.
molecule | miR-21 FLuc | Rango release inh | Rango complex inh | GLA inh pH 4.5
CC(C)OC(=O)/C(=C/c1ccc2c(c1)c1ccccc1n2C)NC(=O)c1ccccc1 | -25.7% | -4.3% | ? | -9.0
COc1ccccc1C(CNC(=O)C(C)(C)Oc1ccc(Cl)cc1)N1CCCC1 (stereo not given) | / | 2.6% | 5.8% | /
O=c1[nH]c(CSc2nnc(-c3ccncc3)n2Cc2ccco2)nc2ccccc12 | -4.8% | -6.6% | -0.6% | -0.4
COC(=O)c1cc2c(ccn2-c2ccc(F)cc2)n1Cc1cccc(OC)c1 | -10.1% | 24.8% | -2.9% | -6.5
Cc1ccc(NC(=O)c2cnccn2)cc1S(=O)(=O)N1CCCCCC1 | / | -1.4% | 0.1% | /
CC(C)[C@@H]1NC(=O)c2cc([N+](=O)[O-])cc(F)c2NCCC[C@@H](C(N)=O)NC(=O)[C@H](CO)NC1=O | -1.3% | / | / | 5.5
Cc1occc1-c1nnc(SCC(=O)c2c(N)n(C3CC3)c(=O)[nH]c2=O)n1C | / | 18.9% | 0.2% | /
O=C(O)c1ncc(Cl)c(Cl)c1Cl | 5.0%&2.6% | -17.2%&11.9% | -2.5%&3.3% | 6.9&-7.2
Cc1cc(C)n2nc(C(=O)OCC(=O)NCc3ccc(F)cc3)nc2n1 | / | 2.8% | -1.8% | /
Cc1cccc(S(=O)(=O)NC(Cc2c[nH]c3ccccc23)C(=O)O)c1 (stereo not given) | -10.7% | -16.4% | -0.5% | -6.6
Cc1ccc([N+](=O)[O-])cc1NC(=O)CCCOc1ccccc1 | -6.7% | -18.2% | 7.0% | -2.4
COc1ccc(CNC(=O)CN(c2ccccc2OC)S(=O)(=O)c2cccs2)cc1 | / | -29.2% | -1.6% | /
O=[N+]([O-])c1cccn2cc(-c3ccc(Br)cc3)nc12 | -52.5% | 1.4% | 0.3% | -7.3
COc1ccccc1C(=O)N1CCN(C(=O)Cc2ccccc2)CC1 | -1.4% | 7.2% | 2.1% | /

# An excerpt. The share of hits here may be higher or lower than overall.
